From PubChem BioAssay
VDR inh = blocks the human vitamin D receptor; P11473; 0.93% of 400,000 active; Potency, µM, inactives show max response, negative = inhibition, most hits filed as inhibitors; VDR-SRC2-3 peptide fluorescence polarization, 2 h; AID 504847; active = well fitted inhibition curve with a large enough effect; inconclusive = small, poorly fitted or top-dose-only effect, or another doubt; inactive = no such curve, though single readings can be large or run the other way; note: series mostly up to about 120 µM
Target sequence (P11473 whole entry, looked up): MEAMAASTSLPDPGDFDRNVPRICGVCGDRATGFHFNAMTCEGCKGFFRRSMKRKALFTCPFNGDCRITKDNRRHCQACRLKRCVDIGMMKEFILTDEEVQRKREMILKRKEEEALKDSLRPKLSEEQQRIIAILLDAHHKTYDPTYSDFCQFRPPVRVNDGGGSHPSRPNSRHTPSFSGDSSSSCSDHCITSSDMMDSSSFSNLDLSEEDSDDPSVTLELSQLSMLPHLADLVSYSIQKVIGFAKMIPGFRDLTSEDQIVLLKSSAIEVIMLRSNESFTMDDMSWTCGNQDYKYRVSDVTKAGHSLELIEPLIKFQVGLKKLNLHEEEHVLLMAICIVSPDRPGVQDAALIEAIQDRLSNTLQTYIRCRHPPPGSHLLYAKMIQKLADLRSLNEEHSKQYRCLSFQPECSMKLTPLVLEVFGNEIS
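Inhibition of the VDR/SRC2-3 peptide interaction is quantified by fluorescence polarization. Compounds (23 nl, pintool) incubate with the reagents for 2 hours at ambient room temperature.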
The depositor's hits bear a star; ? = inconclusive. % is set by controls: 0 for no effect and ±100 for the full control effect; potency is the fitted concentration of half-maximal effect.

compound | VDR inh
Cc1occc1-c1nnc(SCC(=O)N2CCOCC2)n1CCc1ccccc1 | 16%
O=C(NCc1ccccn1)c1cccc(S(=O)(=O)Nc2ccc(SC(F)F)cc2)c1 | -9%
Clc1ccc(CSc2snnc2-c2ccccc2)c(Cl)c1 | 0%
OC(c1ccccn1)C(O)c1ccccn1 (configuration not stated) | -3%
CC(NC(=O)CSc1ncccn1)c1ccc2c(c1)OCO2 (configuration not stated) | -3%
Cc1ccc(C(=O)C(C)OC(=O)C2CC(=O)N(C3CCCCC3)C2)cc1 (configuration not stated) | -9%
COC(=O)[C@@]1(Cc2ccccc2-c2ccco2)C=C[C@H](C)[C@@H](c2ccccc2)N1C(=O)C(F)(F)F | 45µM*
CC(=O)c1cccc(NC(=S)NC2CC2)c1 | -2%
CCCOc1ccc(C(=O)c2nc3c(n2O)CCCC3)cc1 | 9%
COc1cc(OC)c(NC(=O)c2noc3c2CSc2ccccc2-3)cc1Cl | -4%
O=C(CN1C(=O)NC2(CCCCC2)C1=O)N1CCN(S(=O)(=O)c2ccc(F)c(F)c2F)CC1 | ?
COc1cc(S(=O)(=O)N(Cc2ccccc2)CC2CCCO2)ccc1-n1cnnn1 (configuration not stated) | -7%
CC(=O)c1ccc(NC(=O)c2cnn3ccccc23)cc1 | 7%
Brc1cccc(-c2nnc3n2CCC3)c1 | -3%
COc1cccc(CN2CCNC(=O)C2CC(=O)N(C)C2CCOCC2)c1OC (configuration not stated) | -13%
Cc1cc(C(=O)N/N=C/c2ccc3ccccc3c2)n[nH]1 | 2%
COc1ccccc1C(=O)Nc1cccc(C(=O)N2CCOCC2)c1 | 13%
COc1cc(C)c(NC(=S)Nc2cccc(Cl)c2)cc1OC | ?
O=C(Cc1ccccc1)N1CCC(O)(c2cccnc2)CC1 | 17%
O=c1c2cc(N3CCOCC3)ccc2[nH]c(=S)n1Cc1ccc(Cl)cc1 | 0%
NS(=O)(=O)c1ccc(NNC(=O)c2sccc2Cl)cc1 | -10%
Cc1cc(NC(=O)CCC(=O)N(CC(=O)NC2CCCC2)Cc2ccco2)no1 | -6%
O=C(Nc1ccccc1N1CCOCC1)c1cccc(S(=O)(=O)N2CCOCC2)c1 | 13%
COCC(C)n1c(C)cc(C(=O)CSc2cc(C)c3ccccc3n2)c1C (configuration not stated) | -20%
CC(Nc1cc(N2CCN(C(=O)C(C)(C)C)CC2)ccc1[N+](=O)[O-])c1ccccc1 (configuration not stated) | -3%
CCc1ccc(C(=O)Nc2ccc(S(=O)(=O)Nc3nc(C)cc(C)n3)cc2)o1 | -1%
CC1(C)S[C@@H]2[C@H](NC(=O)COc3ccccc3)C(=O)N2C1C(=O)OCC1CCCCC1 (some centres not stated) | -17%
COc1cc(C(=O)Nc2ccc(N(C)C)cc2)cc(OC)c1OC | 12%
O=C(OCN1C(=O)c2ccccc2C1=O)c1ccccc1 | -12%
O=C(NCCc1csc(-c2ccccc2)n1)c1ccccc1F | 2%
Cc1ccc(CN(Cc2ccccc2)C(=S)Nc2ccccc2C)o1 | -25%
O=C(Nc1cccc(F)c1)C1CCCN1S(=O)(=O)c1cccc2cccnc12 (configuration not stated) | -17%
O=C(CCc1ccc(S(=O)(=O)NC2CCCCC2)cc1)NCc1ccc(Cl)cc1 | 2%
CCN(CC)C(=O)c1ccc2c(c1)N(Cc1ccccc1)C(=O)CS2=O (configuration not stated) | -12%
OCCn1cnc2c(SCc3ccccc3)ncnc21 | -2%
O=C1CCCN1c1cc(Cl)ccc1Cl | 1%
COc1ccc(NC(=O)/C(C#N)=C/c2ccc[nH]2)c(OC)c1 | -14%
CCOC(=O)C1=C(C)N(CC(C)C)C(=O)/C1=C\c1cccs1 | 10%
O=S(=O)(NCCCNS(=O)(=O)c1c(F)cccc1F)c1ccc2c(c1)OCCO2 | -8%
Cc1oc(-c2ccccc2F)nc1CS(=O)CC(=O)NCc1ccc(F)cc1 (configuration not stated) | -5%
CCC(=O)Oc1ccc(C(=O)Nc2ccc3c(c2)C(=O)N(C2CCCCC2)C3=O)cc1 | 9%
COCCN(C(=O)COC(=O)CCC1CCCC1)c1c(N)n(Cc2ccccc2)c(=O)[nH]c1=O | 7%
Cn1nc(C(C)(C)C)cc1C(=O)Sc1cccc(Br)c1 | ?
Cc1ccc(C)c(CN2C(=O)c3ccccc3S(=O)(=O)c3ccc(C(=O)N4CCN(Cc5ccccc5)CC4)cc32)c1 | -8%
O=C(Cc1ccc(Br)cc1)OCC(=O)c1ccc2c(c1)OCCO2 | -1%
NC(=O)C1CCN(C(=O)CC2(CC(=O)O)CCCC2)CC1 | -7%
Cc1ncc([N+](=O)[O-])n1CC(=O)NCc1ccccc1 | 5%
CN(CC(=O)N1CCc2ccccc2C1)S(=O)(=O)c1ccc2c(c1)c(=O)n(C)c(=O)n2C | 8%
COc1ccc(OC)c(N2C(=O)C(Cl)=C(N3CCOCC3)C2=O)c1 | ?
Cc1ccc(S(=O)(=O)N2CCN(CC(O)COc3ccccc3)CC2)cc1 (configuration not stated) | 7%

(cont.)
compound | VDR inh
CC(=O)NNc1cc(C)nc(NS(=O)(=O)c2ccc(C)cc2)n1 | 3%
O=C(OCCCN=C1NS(=O)(=O)c2ccccc21)c1ccc(F)cc1 | 1%
Cc1ccc(NC(=O)/C=C/c2cccc(C(F)(F)F)c2)cc1 | -20%
CCc1cc2c(CN(C)Cc3ccccc3F)cc(=O)oc2cc1O | -5%
CCC(NC(=O)OC(C)(C)C)C(=O)Oc1ccc2c3c(c(=O)oc2c1)CCC3 (configuration not stated) | -10%
CC(=O)c1ccc(OCc2cc(=O)n3ccsc3n2)cc1 | -4%
CNc1nc(C(=O)O)nc(N2CCOCC2)n1 | -13%
COc1ccccc1-c1cc(C(=O)NCc2ccc(Cl)cc2)no1 | -8%
COc1cc(NC(=O)COC(=O)CNC(=O)c2ccc(C)cc2)c(C)cc1[N+](=O)[O-] | -3%
Cc1ccc(S(=O)(=O)N[C@@H](C)C(=O)N2CCC(C(=O)N[C@@H](Cc3ccccc3)C(=O)O)CC2)cc1 | -8%
Cc1nn(C)c2c1c(C(F)(F)F)cc(=O)n2C(C)C(=O)NCc1ccccc1 (configuration not stated) | 18%
O=C(C[n+]1cc(Br)cc(Br)c1)c1ccc(-c2ccccc2)cc1 | -6%
COc1ccc(Oc2coc3cc(O)ccc3c2=O)cc1 | -8%
Cc1ccc2nc(-c3ccncc3)c(Nc3ccccc3C)n2c1 | -9%
COc1ccc([C@H]2[C@H](C(=O)OC(C)(C)C)N3N=Cc4ccccc4C3C23C(=O)c2ccccc2C3=O)cc1OC (some centres not stated) | -6%
O=C(c1ccco1)N1CCN(Cc2cc(=O)c(OCc3ccccc3)co2)CC1 | -8%
Cc1ccc(S(=O)(=O)Nc2ccccc2C(=O)NCC2CCCO2)cc1 (configuration not stated) | -5%
O=C(Cc1csc(NC(=O)Nc2cccc(Cl)c2)n1)NC1CCCC1 | 10%
O=S(=O)(Nc1cc(Br)cc2cccnc12)c1ccccc1 | 4%
COc1ccc(-c2[nH]ncc2CNCCc2ncccc2C)cc1F | -25%
CN(c1ccccc1)S(=O)(=O)c1ccc(Cl)c(C(=O)Nc2ccc(N3CCOCC3)cc2)c1 | 3%
CCOC(=O)C1(Cc2ccccc2)CCN(Cc2cccc3c2OCO3)CC1 | -27%
Cc1cc2ccc(C)c(C)c2nc1SCC#N | 3%
Cc1cc(=O)oc2cc(NC(=O)c3cccc(S(=O)(=O)N(C)C)c3)ccc12 | 0%
CCOc1ccc(-n2c(SCc3ccccc3)nc3c([nH]c4ccccc43)c2=O)cc1 | 3%

Quoted at random: 2 entries already listed.
compound | VDR inh
COc1cc(OC)c(NC(=O)c2noc3c2CSc2ccccc2-3)cc1Cl | -4%
Cc1ccc(C)c(CN2C(=O)c3ccccc3S(=O)(=O)c3ccc(C(=O)N4CCN(Cc5ccccc5)CC4)cc32)c1 | -8%

Next entries
| mol | VDR inh |
| --- | --- |
| CCCCc1nnc(NC(=O)CSc2nc(N)cc(=O)[nH]2)s1 | 9% |
| CC1(c2ccc3noc(-c4ccc(Cl)cc4)c3c2)OCCO1 | -5% |
| CC(=O)N[C@H]1[C@H]([C@H](O)[C@H](O)CO)O[C@](O)(C(=O)O)C[C@@H]1O | 12% |
| COc1ccc(/C=N\NC(=O)COc2ccccc2Cl)cc1Cn1nc(C)cc1C | -7% |
| O=C(NCC1CCN(Cc2cccc(Cl)c2)CC1)Nc1ccccc1Cl | 13% |
| Cc1ccc(S(=O)(=O)CCC(=O)Nc2ccc(Br)cc2C)cc1 | -7% |
| O=C(C[C@H]1C/C=C\CC[C@H](Cc2ccc(F)cc2)C(=O)OC[C@H]2CCCN2C1=O)NCCO | 11% |
| OCC1CCCN(Cc2ccc(-c3ccccc3)cc2)C1 (configuration not stated) | 2% |
| COc1cc(S(=O)(=O)NC2CCCC2)ccc1-n1cnnn1 | 9% |
| O=C(N/N=C/c1cccc(Br)c1)C1CC(=O)N(c2ccccc2)C1 (configuration not stated) | 13% |
| O=C(CN1C(=O)NC2(CCCc3ccccc32)C1=O)N1CCN(C(=O)c2ccco2)CC1 (configuration not stated) | 5% |
| CC1=CC(C)(C)NC(=S)N1c1ccc(C)cc1C | -19% |
| Cc1ccc(S(=O)(=O)/N=C/N(C)C)cc1 | -3% |
| O=C(c1c(Cl)cccc1Cl)N1CCN(c2ccccn2)CC1 | 29% |
| Cc1noc(C)c1C(=O)N1CCN(S(=O)(=O)c2cccc(Cl)c2Cl)CC1 | -8% |
| CC(Cc1n[nH]c(=S)o1)c1ccccc1 (configuration not stated) | -20% |
| Cc1ccc(-c2ccc(/C=N/c3ncn[nH]3)o2)cc1Cl | -5% |
| Cc1ccc(CN2CCCn3nc(C(=O)NCCN(C)C)cc3C2=O)cc1 | -2% |
| O=S1(=O)N=C2CCCCCN2C(c2ccc(F)cc2)N1 (configuration not stated) | 0% |
| CCCn1nc(NC(=O)c2cccs2)c2cc3ccccc3nc21 | -12% |
| COc1cc(CNC2CCCC2)cc(Cl)c1OCc1ccccc1Cl | -1% |
| CCN(CC)CCCNC(=O)c1[nH]c2ccccc2c1Sc1ccc(Cl)cc1 | -18% |
| Cn1c(S(=O)(=O)c2ccc([N+](=O)[O-])cc2)nc(Br)c1Br | 0% |
| COc1ccccc1N1CCN(C(=O)C2c3ccccc3Oc3ccccc32)CC1 | 13% |
| CCOC(=O)N1C(=O)[C@@](CC)(c2ccccc2)N1C(=O)OCC | 79µM* |
| Cc1nc2ccccc2c2c1C(=O)N(C)C2=O | -7% |
| CC(C)CC(c1nnnn1CCc1ccccc1)N1CCN(C(=O)c2ccco2)CC1 (configuration not stated) | -19% |
| O=C(c1ccccc1N1CCOCC1)N1CCCC(Nc2ccc(F)cc2)C1 (configuration not stated) | 8% |
| CCOC(=O)c1nnn2c3ccccc3c(=O)n(C)c12 | -2% |
| Cc1ccc(C(C)C)c(OCCNCc2ccccc2)c1 | -27% |

Some of these compounds in order of their number in VDR inh, lowest first.
| mol | VDR inh |
| --- | --- |
| CCN(CC)CCCNC(=O)c1[nH]c2ccccc2c1Sc1ccc(Cl)cc1 | -18% |
| CCCn1nc(NC(=O)c2cccs2)c2cc3ccccc3nc21 | -12% |
| Cc1nc2ccccc2c2c1C(=O)N(C)C2=O | -7% |
| COc1cc(CNC2CCCC2)cc(Cl)c1OCc1ccccc1Cl | -1% |
| O=S1(=O)N=C2CCCCCN2C(c2ccc(F)cc2)N1 (configuration not stated) | 0% |
| O=C(c1ccccc1N1CCOCC1)N1CCCC(Nc2ccc(F)cc2)C1 (configuration not stated) | 8% |
| COc1ccccc1N1CCN(C(=O)C2c3ccccc3Oc3ccccc32)CC1 | 13% |

More structures.
| mol | VDR inh |
| --- | --- |
| COc1ccc(CCNC(=O)CCc2c(C)nc3cc(-c4cccc(F)c4)nn3c2C)cc1OC | -26% |
| Cc1ccc(N)c(C(O)(C(F)(F)F)C(F)(F)F)c1 | -14% |
| COC(c1ccccc1)c1nnc(CCC(=O)N(C)CCc2ccccc2)o1 (configuration not stated) | -6% |
| Cc1ccccc1NC(=O)c1sc2nc(N3CCOCC3)c3c(c2c1N)CCCC3 | 7% |
| COC(=O)Cn1cnc2c(cnn2-c2ccc(OC)cc2)c1=O | 24% |
| CC(C)N(C(=O)COC(=O)c1cccc(N(C)C)c1)c1ccccc1 | 6% |
| NC(=O)c1cc([N+](=O)[O-])c(Cl)cc1NCc1cccnc1 | -12% |
| CC1CCN(C(=O)c2ccccc2SCC(=O)NCC2CCCCC2)CC1 | 9% |
| O=C(CN1C(=O)CCc2cc(S(=O)(=O)N3CCOCC3)ccc21)NCc1ccc(Cl)cc1 | 4% |
| [O-][n+]1c2ccccc2c2n1CCN1CCOC21c1ccc(Cl)cc1 (configuration not stated) | -8% |
| CCOc1ccccc1NC(=O)CCNC(=O)c1ccc(Cl)cc1 | ? |
| COc1cccc(-c2ccc3c(N)c(C(=O)NC4CC4)sc3n2)c1 | 4% |
| Cc1ccc(S(=O)(=O)N(Cc2cc3cc4c(cc3[nH]c2=O)OCCO4)CC2CCCO2)cc1 (configuration not stated) | -6% |
| Cc1nc2ccccc2n1CSc1ccccc1 | 8% |
| N=c1sccn1CC(=O)Nc1ccccc1Cc1ccccc1 | -14% |
| CCOC(=O)C1=C(CN2CCOCC2)NC(=O)NC1c1cc(C)ccc1C (configuration not stated) | -6% |
| COc1cccc(/C=N/Nc2nc(Nc3ccc([N+](=O)[O-])cc3)nc(N3CCCC3)n2)c1O | 7% |
| CC[C@@]1(c2ccccc2)C(=O)N(C(=O)OC)N1C(=O)OC | ? |
| COC(=O)CN1C(=S)N(c2ccc(Cl)cc2)C(=O)C1CC(=O)Nc1ccccc1 (configuration not stated) | 16% |
| Cc1cc(C)cc(NC(=O)Cn2c(-c3ccccc3Cl)nc3ccccc32)c1 | -13% |
| Cc1ccc(N(C)S(=O)(=O)c2c[nH]c3ccc([N+](=O)[O-])cc23)cc1 | 0% |
| CC(OC(=O)CNC(=O)c1ccc(F)cc1)C(=O)Nc1ccc(S(=O)(=O)N2CCOCC2)cc1 (configuration not stated) | 24% |
| c1ccc(Nc2cccc3c(Nc4ccccc4)cccc23)cc1 | -4% |
| N#Cc1cccc(NC(=O)COC(=O)CCc2nc3ccccc3c(=O)[nH]2)c1 | 6% |

Not all compounds are listed; rates above refer to the full screens.
